Menin-MLL FL inh: qHTS Assay for Inhibitors Targeting the Menin-MLL Interaction in MLL Related Leukemias: Competition With Fluorescein Labeled MLL-derived Peptide. Fluorescence polarization, fluorescein-MLL peptide displacement from menin. FP activity change, % at 61.4 µM. 290,000 tested, under 10 active; inconclusive = falling polarisation curve, or a change in total fluorescence; inactive = total fluorescence flat and polarisation flat or rising; no compound was filed as active; the % refers to the polarisation; negative = inhibition;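 note: % of control where 0% means no effect; inhibitors lower the polarisation; unlabelled MLL peptide was the positive control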
ClpP mod: qHTS Assay for Activators of ClpP; ATP-dependent Clp protease proteolytic subunit (Bacillus subtilis (strain 168)), P80244; purified B. subtilis ClpP, FRET peptide cleavage, 20 min; Potency, µM (top dose mostly 57.5 µM), for inactives: at the top dose activity change, negative = active; actives 1.9% (n = 340,000); active = well fitted falling curve with a large enough effect; inconclusive = small, poorly fitted or top-dose-only effect; inactive = no such curve, though single readings can be large or run the other way; note: potency is the fitted concentration of half-maximal effect; the source files actives as falling curves though it sought activators and does not explain the sign; nearly all actives have a fitted effect of over 65% in size; many hits overshoot -100%
Target sequence (P80244 whole entry, looked up): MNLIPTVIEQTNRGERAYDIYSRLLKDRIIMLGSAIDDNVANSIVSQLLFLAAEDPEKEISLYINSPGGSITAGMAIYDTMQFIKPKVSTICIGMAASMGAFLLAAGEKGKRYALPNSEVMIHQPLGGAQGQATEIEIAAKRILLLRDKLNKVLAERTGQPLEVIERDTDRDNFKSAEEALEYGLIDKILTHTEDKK
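ClpP 10 microg/mL final, pH 8 Tris/KCl buffer with BSA, glycerol, Tween-20; compound pinned in; FRET-FV substrate; RT 20 min; Ex320/Em430; ΔFRET vs ADEP 5.8 microM, DMSO, no enzyme.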
CtBP-E1A inh: qHTS Assay for Inhibitors of the CtBP/E1A Interaction | CtBP / adenovirus E1A interaction (AlphaScreen) | AlphaScreen GST-E1A/His-CtBP binding, 1536-well; active compounds read low; control for the full effect not named in the record | activity change, % (test concentration not listed) | actives 0.49% (n = 340,000); in the data active means activity change below about -65%; inconclusive means about -30% to -65%; inactive means above about -30%; note: % is set by controls: 0 for no effect and ±100 for the full control effect
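In 5 uL wells, 23 nL compound meets equimolar GST-E1A and His-CtBP (5X stock 125 nM each) for 2 h, 37 °C. Beads (5X, 50 ug/mL) then 1 h, 37 °C, dark.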
TRPV1 potentiator: HTS Assay for Compounds that Act as Potentiators of the Vanilloid Receptor 1 | Transient receptor potential cation channel subfamily V member 1 (Homo sapiens), Q8NER1 | TRPV1-expressing cells, Fluo-8 calcium influx, capsaicin EC20 potentiation; host cell line not named in the record; control for the full effect not named in the record | AID 540277, 2011 | actives 0.02% (n = 320,000) | potentiation, % at 8.33 µM; active means potentiation above 80%; inconclusive means 30% to 80%; inactive means below 30%; note: 0% is about no effect
Target sequence (Q8NER1 whole entry, looked up): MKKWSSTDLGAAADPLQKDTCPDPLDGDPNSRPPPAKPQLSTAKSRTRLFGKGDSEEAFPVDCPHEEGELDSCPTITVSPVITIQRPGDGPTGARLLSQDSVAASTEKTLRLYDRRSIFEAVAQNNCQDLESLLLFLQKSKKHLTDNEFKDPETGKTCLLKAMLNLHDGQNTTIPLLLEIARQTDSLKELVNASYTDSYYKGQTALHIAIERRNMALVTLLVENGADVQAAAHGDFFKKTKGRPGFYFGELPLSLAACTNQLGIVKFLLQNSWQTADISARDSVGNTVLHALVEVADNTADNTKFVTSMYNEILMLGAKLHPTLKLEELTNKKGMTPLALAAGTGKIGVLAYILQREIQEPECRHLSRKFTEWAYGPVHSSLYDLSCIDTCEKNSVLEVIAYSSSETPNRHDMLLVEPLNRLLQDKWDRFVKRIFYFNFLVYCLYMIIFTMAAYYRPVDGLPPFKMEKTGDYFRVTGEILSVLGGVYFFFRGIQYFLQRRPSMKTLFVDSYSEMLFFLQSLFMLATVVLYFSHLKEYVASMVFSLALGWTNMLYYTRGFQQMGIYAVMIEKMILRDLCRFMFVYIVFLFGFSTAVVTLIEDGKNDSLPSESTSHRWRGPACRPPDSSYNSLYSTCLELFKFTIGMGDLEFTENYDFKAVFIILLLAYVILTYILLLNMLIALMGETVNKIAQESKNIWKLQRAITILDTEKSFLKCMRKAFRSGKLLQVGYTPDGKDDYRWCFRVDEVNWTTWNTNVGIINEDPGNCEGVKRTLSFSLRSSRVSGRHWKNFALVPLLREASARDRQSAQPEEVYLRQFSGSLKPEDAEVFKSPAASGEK
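TRPV1-expressing cells were cultured overnight at 35.5C and loaded with Fluo-8 calcium dye for 40 to 90 min at room temperature. After a 10 s baseline, compound was added and calcium influx was read kinetically for 3 min (ex 480/em 520 nm).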
gsp agonist: qHTS for Agonist of gsp, the Etiologic Mutation Responsible for Fibrous Dysplasia/McCune-Albright Syndrome: qHTS. Potency, µM (titrated, usually from 76.9 µM), without a hit: at the highest dose activation (cAMP increase), usual class: activators. actives 0.13% (n = 340,000). gsp mutant cells, cAMP HTRF, 30 min; control for the full effect not named in the record. AID 624287, 2012; active = well fitted activation curve with a large enough effect; inconclusive = small, poorly fitted or top-dose-only effect, or another doubt; inactive = no such curve, though single readings can be large or run the other way; cell line not stated here;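 note: phosphodiesterase inhibitor Ro 20-1724 added with compounds to block cAMP breakdown; potency is the fitted concentration of half-maximal effect; nearly all actives have a fitted effect of over 60% in size; about a fifth of the inactives were tested at one dose only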
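Cells stably selected in G418 were plated at 2000/well, grown 16-24 hr, then given compounds in DMSO with the PDE inhibitor […] (300 uM solution added) for 30 min at 37C; cAMP was read by HTRF.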
gsp antagonist: qHTS for Antagonists of gsp, the Etiologic Mutation Responsible for Fibrous Dysplasia/McCune-Albright Syndrome: qHTS; gsp-mutant cells, cAMP HTRF, 30 min; control for the full effect not named in the record; Potency, µM (series often up to 76.9 µM), for the others: top-dose activity change, negative = inhibition, most hits filed as inhibitors; actives 0.4% (n = 340,000); AID 624288, 2012; active = falling curve of any shape with a large fitted effect; inconclusive = falling curve, mostly with a smaller effect; inactive = flat or rising curve; cell line not stated here;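 note: intracellular cAMP measured with PDE inhibitor Ro 20-1724 present during compound exposure; potency is the fitted concentration of half-maximal effect; % is set by controls: 0 for no effect and ±100 for the full control effect; nearly all actives have a fitted effect of over 65% in size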
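G418-selected cells were plated in DMEM/10% FBS for 16-24 h at 37C, then treated with compounds plus the PDE inhibitor […] (300 uM solution added) for 30 min at 37C. Intracellular cAMP was measured by HTRF after 30 min lysis at room temperature.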
Sfp inh: qHTS Assay for Inhibitors of Bacillus subtilis Sfp phosphopantetheinyl transferase (PPTase); 4'-phosphopantetheinyl transferase ffp (Bacillus subtilis), Q9F4F7; Biochemical Sfp PPTase activity, qHTS; Potency, µM, inactives show max response, negative = inhibition, actives largely listed as inhibitors; actives 3.5% (n = 310,000); AID 1490, 2009; active = well fitted inhibition curve with a large enough effect; inconclusive = small, poorly fitted or top-dose-only effect, or another doubt; inactive = no such curve, though single readings can be large or run the other way;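 note: the enzyme is Sfp with the accession as filed and its product quenches rhodamine fluorescence; potency is the fitted concentration of half-maximal effect; 0% = enzyme reaction without inhibitor and -100% = no enzyme wells; top concentration of the series not given in the record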
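Reaction rates are the 30-min fluorescence difference (ex 525, em 598 nm) in wells containing 15 nM Sfp, 5 uM rhodamine-CoA and 12.5 uM BHQ-2-YbbR at pH 7.6 with 10 mM MgCl2.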
The depositor's hits bear a star; ? = inconclusive; . = not tested or not shown; & = joins results of further samples; [ ] = dose if it differs, or a comment.

Order of values – gsp agonist, gsp antagonist, TRPV1 potentiator, Menin-MLL FL inh, CtBP-E1A inh, ClpP mod, Sfp inh
- CCOC(=O)c1c(C)[nH]c(C(=O)COC(=O)CNC(=O)c2ccc(Cl)cc2)c1C
    23%, -19%, 2, -0.9, 3, 0.8%, 18%
- CCOC(=O)N1CCN(Cc2nc3cc(NC(=O)c4cccs4)ccc3n2C)CC1
    5%[15.4 µM], -4%, 7, 4.1, -3, 1.9%, 6%
- COc1cccc(NC(=O)CSc2nc3c(c(=O)n2C)SC(C)C3)c1 (stereo not drawn)
    3%, -11%, -3, 2.7, 0, -0.3%, -12%
- CCN(CC(O)COCc1ccc(Cl)cc1)C1CCCCC1 (stereo not drawn)
    -5%[15.4 µM], ., 2, -3.8, 6, ., 9%
- Cc1ccc(OCc2ccccc2Br)c([N+](=O)[O-])n1
    -4%, 8%, -16, -8.6, 0, ., -3%
- CCc1ccccc1N(C(=O)c1ccco1)C(C(=O)NC1CCCC1)c1cccnc1 (stereo not drawn)
    -5%, -5%, -19, -16, 0, ., 7%
- CCn1ncc(Br)c1C(=O)Nc1cccc(F)c1
    0%, 9%, -2, -1.9, 4, 1.2%, 13%
- COc1ccccc1C(C)NC(=O)c1ccccc1SCC(=O)N1CCCC1 (stereo not drawn)
    14%, 7%, -10, ., 20, -2.7%, .
- COc1ccc(/C=C/C(=O)C2C(=O)C=C(C)OC2=O)cc1O (stereo not drawn)
    0%[15.4 µM], -15%, -2, ?, -16, -0.8%, 5%
- O=C(NCC1CCCO1)c1ccc(COc2ccccc2)cc1 (stereo not drawn)
    -8%, 10%, -5, ., 6, -2.2%, 5%
- Cc1cc(=O)[nH]c(CN2CCC(c3ccccc3)CC2)n1
    -3%[15.4 µM], -8%, -15, -2.0, 0, ., -18%
- CC(C)C(C(=O)NC(C)(C)C)N(CCN1CCOCC1)C(=O)CNS(=O)(=O)c1ccccc1 (stereo not drawn)
    -4%[15.4 µM], -26%, 0, 1.6, 0, 0.2%, 15%
- COc1ccc(C2C(C#N)=C(N)N(N(C)C)C3=C2C(=O)CC(C)(C)C3)cc1OC (stereo not drawn)
    -16%, 0%, -8, 1.5, 0, ., 1%
- COc1ccc(NC(=O)COC(=O)c2c3c(nc4ccccc24)CCCC3)cc1Cl
    -5%, ?, -2, 3.1, -13, 3.0%, 4%
- Cc1cc(NC(=O)c2ccc(S(=O)(=O)N3CCc4ccccc43)cc2)no1
    0%, -5%, 14, 9.8, -13, -0.8%, 8%
- Cc1ccc(S(=O)(=O)N2CCN(CC3CC4C=CC3C4)CC2)cc1 (stereo not drawn)
    4%[15.4 µM], 3%, -16, -0.8, 0, ., ?
- COc1ccc(NC(=O)CSc2ccc([N+](=O)[O-])cc2)cc1S(=O)(=O)N1CCOCC1
    -43%[inhibitor], -17%, 3, ., -4, 0.6%, .
- COc1cc(CNCCN(C)C)c(Br)cc1OC1CCCC1
    10%, 8%, -3, -0.8, ., 1.3%, 1%
- CC(C)(C)c1cc(C(=O)N/N=C/c2ccc(F)cc2)n(-c2ccccc2)n1
    ?, -10%, 7, -0.6, 8, 0.9%, 9%
- Cc1cccc(C(=O)NCc2nnc(SCC(=O)NC(C)c3ccccc3)n2C)c1 (stereo not drawn)
    7%[15.4 µM], 11%, -28, 5.0, -4, 0.2%, 12%
- COc1ccccc1OCC(=O)Nc1nnc(-c2ccco2)s1
    10%, -15%, -5, -3.6, 7, -29%, -7%
- O=[N+]([O-])c1ccc(N2CCCC2)cc1NC(c1ccccc1)c1ccccc1
    -2%, -2%[15.4 µM], 1, 3.8, 3, -0.5%, 0%
- O=C(NC1(C(F)(F)F)Oc2ccccc2O1)N1CCCC1
    -12%, 5%, -8, 3.3, 4, 1.3%, -3%
- CN1CCCCCC1=Nc1ccccc1C#N
    25%, -3%, -16, -3.6, 0, -0.9%, -23%
- O=C(c1ccco1)N1CCN(S(=O)(=O)c2ccc([N+](=O)[O-])cc2)CC1
    ?, 1%, 1, -1.7, ., 2.3%, -8%
- Cc1ccc(Nc2c(-c3ccc(N4CCOCC4)cc3)nc3ncccn23)c(C)c1
    8%, 1%, 20, 6.3, -1, -1.2%&-0.4%, -7%
- CCC(C(=O)Nc1ncc(C)s1)c1ccccc1 (stereo not drawn)
    -19%, -7%, -15, 2.1, -1, ., 1%
- Cc1nnc(SCC(=O)Nc2sc3c(c2C(=O)c2ccccc2)CCCC3)s1
    20%[15.4 µM], 3%, -2, 9.1, 2, 0.7%, 0%
- O=[N+]([O-])c1cc(Br)c(O)c(C=Nc2ccc(N3CCOCC3)cc2)c1
    -10%, -50%, -13, 1.0, -7, ., -9%
- CCOC(=O)C(O)(NC(=O)c1cccnc1)C(F)(F)F (stereo not drawn)
    0%, -6%, -32, 3.2, -3, 0.7%, 8%

9 entries from above, ordered by heavy-atom count, lowest first.
Order of values – gsp agonist, gsp antagonist, TRPV1 potentiator, Menin-MLL FL inh, CtBP-E1A inh, ClpP mod, Sfp inh
- CN1CCCCCC1=Nc1ccccc1C#N
    25%, -3%, -16, -3.6, 0, -0.9%, -23%
- CCn1ncc(Br)c1C(=O)Nc1cccc(F)c1
    0%, 9%, -2, -1.9, 4, 1.2%, 13%
- Cc1cc(=O)[nH]c(CN2CCC(c3ccccc3)CC2)n1
    -3%[15.4 µM], -8%, -15, -2.0, 0, ., -18%
- CCN(CC(O)COCc1ccc(Cl)cc1)C1CCCCC1 (stereo not drawn)
    -5%[15.4 µM], ., 2, -3.8, 6, ., 9%
- O=C(NCC1CCCO1)c1ccc(COc2ccccc2)cc1 (stereo not drawn)
    -8%, 10%, -5, ., 6, -2.2%, 5%
- Cc1ccc(S(=O)(=O)N2CCN(CC3CC4C=CC3C4)CC2)cc1 (stereo not drawn)
    4%[15.4 µM], 3%, -16, -0.8, 0, ., ?
- Cc1cc(NC(=O)c2ccc(S(=O)(=O)N3CCc4ccccc43)cc2)no1
    0%, -5%, 14, 9.8, -13, -0.8%, 8%
- COc1ccccc1C(C)NC(=O)c1ccccc1SCC(=O)N1CCCC1 (stereo not drawn)
    14%, 7%, -10, ., 20, -2.7%, .
- COc1ccc(NC(=O)CSc2ccc([N+](=O)[O-])cc2)cc1S(=O)(=O)N1CCOCC1
    -43%[inhibitor], -17%, 3, ., -4, 0.6%, .

Later entries:
Order of values – gsp agonist, gsp antagonist, TRPV1 potentiator, Menin-MLL FL inh, CtBP-E1A inh, ClpP mod, Sfp inh
- Cc1ccc(C(=O)OC(C)C(=O)NC2CCCCC2C)cc1S(=O)(=O)N1CCOCC1 (stereo not drawn)
    9%, 7%, -7, ., 5, 2.9%, 24%
- CCC(C)(C)NC(=O)c1ccc2c(c1)N(CC(=O)OC)C(=O)C(C)(C)O2
    ?, 2%, -4, 5.6, 3, 0.3%, 13%
- CC(=O)N/C(=N/c1nc(C)cc(C)n1)Nc1ccc(C)cc1Cl
    -3%[15.4 µM], -6%, -12, ?, 2, 0.8%, 11%
- COC1=C(Nc2ccc(OC)cc2)C(=O)c2ccccc2C1=O
    -11%[15.4 µM], 3%, -8, -1.1, 12, 8.6%, ?
- CC1(C)Oc2ccc3ccc(=O)oc3c2C(N2CCCCC2)C1O (stereo not drawn)
    21%, -1%, 1, ?, 2, -23%, -19%
- Cc1nn(-c2ccccc2)c2c1C(c1ccc(Cl)cc1)N(c1ccccc1)C(=O)N2 (stereo not drawn)
    -42%[inhibitor], -9%, -11, 2.1, -12, -1.1%, -3%
- CCCCn1c(N)c(N(CCOC)C(=O)COC(=O)c2ccccc2OCC)c(=O)[nH]c1=O
    -6%, 9%, 3, -2.2, 2, -2.3%, 17%
- CC(=O)N/C(=C\c1ccc(F)cc1)C(=O)NC(Cc1ccccc1)C(=O)O (stereo not drawn)
    -1%, 10%, -15, 1.4, 12, -1.9%, 18%
- Cc1ccc(C2NC(=O)NC(O)(C(F)(F)F)C2C(=O)c2cccs2)o1 (stereo not drawn)
    18%, 9%, 8, 0.2, 1, -1.2%, 16%
- Cc1ccc(C23CCC(=O)N2C(C(=O)O)CS3)c(C)c1 (stereo not drawn)
    -3%[15.4 µM], -14%, 2, 0.7, 3, ., -13%
- O=[N+]([O-])c1ccc(S(=O)(=O)NCC(c2ccco2)N2CCc3ccccc3C2)cc1 (stereo not drawn)
    7%[15.4 µM], -19%, -15, ., -9, -1.0%, .
- COC(=O)c1cc(CSc2nnc(NC3CCCCC3)s2)oc1C
    -7%, ?, -10, 8.4, -8, -1.5%, 32µM*
- CC(C)(C)C(=O)Nc1nnc(COc2ccc(Cl)cc2)s1
    -3%[15.4 µM], -8%, 11, 1.2, 7, 1.0%, -4%
- COC(=O)CCC(=O)Nc1sc(C)c(C)c1C(N)=O
    -27%, 7%, -3, 1.9, -1, -0.8%, 14µM*
- COc1cccc(OC)c1C(=O)OCC(=O)NCC(C)C
    0%, 0%, -1, 2.2, -12, ., 22%
- O=C(/C=C/N1CCOCC1)c1ccc(-c2ccccc2)cc1
    31%, 1%, -14, 4.9, 5, 0.1%, -8%
- O=C1c2cccnc2C(=O)N1Cc1ccc2c(c1)OCO2
    8%, 13%, -5, -1.0, -15, -0.1%, 4%
- CCCn1nnnc1SCC(=O)N1CCN(C(=O)c2ccco2)CC1
    -1%, -1%, 18, -5.4, -3, -0.6%, 14%

Source: PubChem BioAssay
